High-throughput results from PubChem BioAssay.
Sa growth 42C – S. aureus growth inhibition | S. aureus RN4220 growth, OD600, 20 h, 42 °C; hits give low values | relative growth, % (concentration not given with the values) | 0.53% of 170,000 active | AID 720641;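 active = growth at 42 °C up to 50% and 20 or more points under that at 30 °C, or under 10% at both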;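 note: 300 nL library stock went into each well; scaled to the means of positive and negative controls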
GIV Gai3 FP – blocks GIV peptide binding to rat Galpha-i3 | P08753 | Galpha-i3/FITC-GIV peptide fluorescence polarization, 90 min; hits give low values; scaled: aluminum fluoride 0%, vehicle 100% | percent of control (FP), % (test concentration not listed) | 0.42% of 210,000 active | AID 1224905;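 active = replicate mean at 85% of control or lower, very high polarization wells dropped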;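 note: wells of about 15 µL received 100 nL stock; the first replicate is given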
Target sequence (P08753 whole entry, looked up): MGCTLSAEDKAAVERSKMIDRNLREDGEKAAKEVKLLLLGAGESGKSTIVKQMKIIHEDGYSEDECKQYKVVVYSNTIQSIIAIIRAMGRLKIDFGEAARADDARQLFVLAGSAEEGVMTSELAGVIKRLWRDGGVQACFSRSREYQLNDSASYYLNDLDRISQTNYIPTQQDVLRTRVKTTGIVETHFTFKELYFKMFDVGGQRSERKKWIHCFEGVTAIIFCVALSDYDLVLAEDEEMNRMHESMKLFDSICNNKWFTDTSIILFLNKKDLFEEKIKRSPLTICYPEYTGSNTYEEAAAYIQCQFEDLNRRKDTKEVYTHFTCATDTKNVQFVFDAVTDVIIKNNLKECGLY
HCMV NEC inh – disrupts HCMV UL50-UL53 complex binding; HTRF UL50-UL53 interaction, normalized percent inhibition; inhibition, % (test concentration not listed); 0.15% of 190,000 active;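 active = both replicates at 50% or more, plus weaker picks with an unusually low signal ratio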;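 note: stock transfer was 100 nL into about 20 µL; 0% = negative control wells and 100% = wells with untagged competitor protein; inactives centre near -12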
Sa growth 42C second temp – second read-out of Sa growth 42C, no call of its own (marks repeat the call); relative growth, %; measured here: growth at 30 °C;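 optical density after 20 h as mean of two plates; 100% = untreated growth and lower means inhibition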
* hit, by the source's call; · = no result given; & = joins results of further samples. Compounds as they come; about 0.83% have a hit in one of these screens.

cpd	SMILES	Sa growth 42C	Sa growth 42C second temp	GIV Gai3 FP	HCMV NEC inh
1	C=CCSc1nnc(NC(=O)CSc2nc(CCC)cc(=O)[nH]2)s1	98	103	100	1
2	Cn1c(=O)n(-c2cccc(Cl)c2)c(=O)c2sc3ccccc3c21	97	94	105	-39
3	Cc1nc(Nc2ccc(N3CCOCC3)cc2)cc(-c2ccccc2)n1	·	·	102	4
4	COC(=O)c1ccc(CSc2nncn2C)cc1	84	95	·	-15
5	COc1ccc(C(=O)Nc2nc(CC(=O)NC3CCCC3)cs2)cc1	·	·	104	-24
6	O=C(Cn1ncc2c([nH]c3ccccc32)c1=O)N1CCCCC1	107	90	108	-35
7	NC(=O)C1CN(C(=O)Cc2ccc3c(c2)CCC3)c2ccccc2O1 (stereo unspecified)	79	91	·	-25
8	Cc1ccc(NC(=O)N2CCN(Cc3nc4cc(C(=O)N(C)C)ccc4n3C)CC2)cc1	·	·	102	-38
9	CCCSCCCNC(=O)C1CCCN(S(=O)(=O)c2ccc3c(ccn3CC)c2)C1 (stereo unspecified)	·	·	106	-28
10	CCOC(=O)c1sc(-n2ncc3c(=O)[nH]cnc32)nc1C	104	91	101	-26
11	CC(=O)OCC1OC(Oc2ccccc2)C(OC(C)=O)C(OC(C)=O)C1OC(C)=O (stereo unspecified)	93	86	102	-7
12	Cc1ccc(C(C)NC(=O)CCCc2nc(-c3cc4ccc(C)cc4[nH]c3=O)no2)cc1 (stereo unspecified)	·	·	113	-1
13	Fc1cccc(CSC2=NCN(C3CC3)CN2)c1	90	84	101	-14
14	Cc1ccc2cc(C)c(NCc3cccnc3)nc2c1	98	94	·	4
15	NS(=O)(=O)c1ccc(CNC(=O)C2CCCCC2)cc1	87	88	102	-10
16	Cc1cc(C(=O)COc2ccccc2Cl)c(C)n1Cc1cccs1	12	7	·	-29
17	O=C(Oc1c(-c2ccccc2)oc2ccccc2c1=O)c1cccnc1	106	61	107	-22
18	Cc1cccc(NC(=O)N2CCCN(c3ccc(=O)n(-c4ccc(F)cc4)n3)CC2)c1	·	·	107	-37
19	O=C(Nc1ccccc1)Nc1cccc(-c2noc(C3CCCCC3)n2)c1	·	·	104	2
20	COc1cc(OC)cc(C(=O)Nc2ccc3nc(N4CCCCC4)cc(C)c3c2)c1	77	54	101	-29

Part of the list above, showing only Sa growth 42C.
cpd	SMILES	Sa growth 42C
10	CCOC(=O)c1sc(-n2ncc3c(=O)[nH]cnc32)nc1C	104
11	CC(=O)OCC1OC(Oc2ccccc2)C(OC(C)=O)C(OC(C)=O)C1OC(C)=O (stereo unspecified)	93

New compounds follow.
cpd	SMILES	Sa growth 42C	Sa growth 42C second temp	GIV Gai3 FP	HCMV NEC inh
21	Cc1c2cnn(CC(=O)NCc3ccc(F)cc3)c(=O)c2c(C)n1Cc1ccccc1F	108	80	104	-13
22	O=C(NCCc1ccccc1)c1ccc2c(c1)N(Cc1ccc(F)cc1)C(=O)c1ccccc1S2=O (stereo unspecified)	110	99	97	·
23	Cc1c2c(nc3c(C(=O)NCc4ccc(F)cc4)cnn13)CCCC2	104	76	107	2
24	O=C(CSc1nnc2n1CCCN2)c1cccs1	90	85	102	-35
25	Cc1c(Nc2nc3ccccc3n3c(C)nnc23)cccc1C(=O)O	104	86	102	-14
26	Cc1ccc(NC(=O)CN2C(=O)C(c3ccccc3)=NC23CCCCC3)cc1C	93	80	102	-21
27	CCOCCCn1c(SCC(=O)Nc2oncc2-c2ccc(Cl)cc2)nc2ccccc2c1=O	·	·	98	14
28	CNC(=O)c1ccc(Cn2c(=O)c3cc(OC)c(OC)cc3n(CC(=O)NCc3ccc(F)cc3)c2=O)cc1	·	·	103	-22
29	O=C(COC(=O)c1ccc(Cl)s1)c1ccc2[nH]c(=O)[nH]c2c1	67	94	·	-13
30	COc1ccc(/C=C/C(=O)OCc2cc(=O)n3cc(C)ccc3n2)cc1S(=O)(=O)N1CCOCC1	86	92	·	-27
31	O=C(Nc1ccc(Cl)c(Cl)c1)Oc1ccc(NC(=O)c2ccco2)cc1	3.7*	3.2*	·	-14
32	CC(C)NC(=O)CN1C(=O)CC(C)Sc2ccc(S(=O)(=O)N3CCCCC3)cc21 (stereo unspecified)	·	·	101	-26
33	Clc1ccc(CNc2ccc3nnc(-c4ccccc4)n3n2)cc1	104	93	102&104	6&3
34	COc1ccc(NC(=O)C(NS(=O)(=O)c2ccc3nc(C)sc3c2)C(C)C)cc1OC (stereo unspecified)	83	91	102	1
35	FC(F)(F)c1nc(NCc2cccnc2)c2ccccc2n1	107	102	101	32
36	COc1cc(CN2CCc3nc(N4CCN(c5ncccn5)CC4)ncc3C2)cc(OC)c1OC	85	84	102	·
37	Cc1ccc(CCNC(=O)CS(=O)Cc2nc(-c3ccccc3C)oc2C)cc1 (stereo unspecified)	108	84	105	-23
38	CCOC(=O)Nc1ccc(C(=O)OC)cc1	99	82	94	-19
39	CCN(Cc1ccncc1)C(=S)NCc1ccccc1	113	94	·	10
40	CCNC(=O)c1ccc2c(c1)N(C)CCS2	101	87	102	·

An excerpt from above in order of their number in GIV Gai3 FP, lowest first:
entry | Molecule | Sa growth 42C second temp | GIV Gai3 FP
38 | CCOC(=O)Nc1ccc(C(=O)OC)cc1 | 82 | 94
25 | Cc1c(Nc2nc3ccccc3n3c(C)nnc23)cccc1C(=O)O | 86 | 102
37 | Cc1ccc(CCNC(=O)CS(=O)Cc2nc(-c3ccccc3C)oc2C)cc1 (stereo unspecified) | 84 | 105

Additional records.
cpd	SMILES	Sa growth 42C	Sa growth 42C second temp	GIV Gai3 FP	HCMV NEC inh
41	COC(=O)c1cnc(S(=O)CC#N)n1C (stereo unspecified)	98	84	96	-8
42	COc1ccc(NC(=O)CCCOc2cc(=O)n(C)c3ccccc23)c(OC)c1	119	103	107	28
43	COc1cc(-c2c(C#N)c(N)nc3sc(C(=O)c4ccccc4)c(N)c23)cc(OC)c1OC	·	·	111	-23
44	COc1cccc(-c2nnc(NC(=O)c3ccc(S(=O)(=O)N(C)C)cc3)o2)c1	71	33	101	·
45	Cc1ccc(SCC(=O)Nc2ccc3oc(-c4ccccc4F)nc3c2)cc1	103	78	99	-30
46	Cc1nc2sccn2c1-c1csc(NCc2ccco2)n1	95	82	·	-1
47	CC(C)c1ccc(Cc2cnc(NC(=O)c3ccc4c(c3)CC(c3ccccc3)OC4=O)s2)cc1 (stereo unspecified)	94	88	98	-24
48	O=C(Nc1ccc2c(c1)OCO2)c1c(-c2ccc(Cl)cc2)nc2n1CCS2(=O)=O	·	·	102	-24
49	O=C1OCCC1Sc1nnc(-c2ccc(Cl)cc2)o1 (stereo unspecified)	93	85	98	·
50	O=S(=O)(NCc1ccccn1)c1ccccc1	89	84	97	-12
51	O=C(NCc1cccc(Cl)c1)c1cc2c(s1)-c1ccccc1SC2	107	77	102	-13
52	O=C(CN1C(=O)COc2ccccc2C1=O)c1ccc(F)cc1	·	·	103	-2
53	c1ccn2c(SCc3nnc(-c4cc5c(s4)CCCC5)o3)nnc2c1	82	91	·	-23
54	CCOC(=O)c1c(NC(=O)C23CC4CC(CC(C4)C2)C3)sc(C(=O)Nc2cc(C(F)(F)F)ccc2Cl)c1C	·	·	99	-4
55	CCc1nn(CC(=O)Nc2c(C)cc(C)cc2C)c(=O)c2cc3sccc3n12	96	107	109	12
56	Cc1cccc(OC(=O)CSc2nnc(-c3cccs3)o2)c1C	106	84	99	-21
57	COc1cc(NS(=O)(=O)c2ccc3c(c2)OCC(C(=O)N2CCCC2)O3)cc(OC)c1 (stereo unspecified)	80	78	103	·
58	CCC(=O)Nc1ccccc1-c1nc2ccccc2n(CC(=O)Nc2ccccc2OC)c1=O	102	86	99	-32
59	FC(F)(F)c1cc(-c2ccccn2)nc2c(-c3ccccc3)cnn12	·	·	107	-19
60	Cc1ccc(-n2nc3c(N4CCC(C(=O)NC5CCCCC5)CC4)nnc(C)c3c2C)cc1	100	92	105	·

cpd	SMILES	Sa growth 42C	Sa growth 42C second temp	GIV Gai3 FP	HCMV NEC inh
61	Cc1cc(C(=O)C(C)OC(=O)c2cccc(-n3cnnn3)c2)c(C)n1-c1ccccc1 (stereo unspecified)	116	97	·	-19
62	O=C(CSc1nccn2nc(-c3ccccc3)cc12)NCc1ccccc1	·	·	107	-18
63	CCc1ccc(CNC(=O)CN2C(=O)CSc3ncccc32)cc1	101	81	101	·
64	Cc1nn(-c2c(Cl)cc(C(F)(F)F)cc2Cl)c(C)c1C(N)=O	113	95	101	-6
65	Cc1ccc(NS(=O)(=O)c2ccc3c(c2)C(C(C)C)C(=O)N3)cc1C (stereo unspecified)	105	81	99	·
66	O=c1[nH]c2ccccc2cc1CNc1ccccc1	111	99	98	-9
67	CCOC(=O)/C(C#N)=C/c1ccc(N2CCCCC2)o1	59	77	-74*	-148
68	COc1cccc(C2c3c(-c4ccccc4O)n[nH]c3C(=O)N2Cc2cccnc2)c1 (stereo unspecified)	108	79	102	-8
69	COC(=O)c1ccc(Oc2nc3c(c(=O)n(C)c(=O)n3C)n2Cc2ccc(Cl)c(Cl)c2)cc1	99	104	107	5
70	CCN=C1SC(CC(=O)Nc2ccccc2Cl)C(=O)N1CC (stereo unspecified)	·	·	103	-12
71	COc1ccc(-n2nc(C)cc2Nc2ccccc2C(=O)O)cc1	98	76	107	-4
72	Cc1ccc(-n2c(=O)c3c(c4cc(C)ccc4n3C)n(Cc3ccc(F)cc3)c2=O)cc1	110	104	105	·
73	COc1ccc(OC)c(NS(=O)(=O)c2ccc3[nH]c4c(c3c2)CCCCC4)c1	105	80	99	·
74	O=C(c1cnn2c(C(F)(F)F)cc(-c3ccccc3)nc12)N1CCCC1	95	80	97	·
75	O=C(O)CCCC(=O)N1CCCN(c2ccc(C(F)(F)F)cn2)CC1	103	81	97	28
76	N#Cc1ccccc1OCc1nc2ccccc2o1	102	94	·	1
77	Cc1csc2ncnc(Sc3ccccc3NS(=O)(=O)c3ccc(F)cc3)c12	109	108	99	-7
78	Cc1ccc2nc(CN3CCN(S(=O)(=O)c4ccc(C(C)C)cc4)CC3)oc2c1	104	88	108	·
79	O=C(CCn1cnc2onc(-c3ccccc3)c2c1=O)NC1CC1	·	·	101	-1
80	CCC(CO)Nc1nc(C)nc2sc3c(c12)CCC3 (stereo unspecified)	93	84	104	-15&-2

cpd	SMILES	Sa growth 42C	Sa growth 42C second temp	GIV Gai3 FP	HCMV NEC inh
81	O=C1CC(Sc2cccs2)C(=O)N1c1ccccc1 (stereo unspecified)	38	18	92	-11
82	O=C(CSc1ccccc1Cl)c1cc2ccccc2o1	98	96	·	9
83	Cc1ccc(NC(=O)/C(C#N)=C\c2ccc(Sc3nc4ccccc4[nH]3)o2)cc1C	115	62	167	-28
84	CC(C)CNC(=O)C1CCN(S(=O)(=O)c2ccc(-n3cnnn3)cc2)CC1	89	90	99	-34
85	CCC(=O)Nc1nc2c(s1)CC(C)CC2 (stereo unspecified)	·	·	102	-10
86	Cc1ccccc1OC(=O)Cn1c(C(F)(F)F)nc2ccccc21	·	·	97	-20
87	Cc1ccc(CO/N=C/c2cccs2)cc1	118	103	·	-34
88	COc1ccccc1-n1ncc2c(=O)[nH]c(SCC(=O)Nc3cccc(F)c3)nc21	96	86	100	·
89	CCOc1ccc(C2CNC(=O)C2C(=O)OC)cc1OCC (stereo unspecified)	108	85	102	-5
90	CC1CCCCN1C(=O)CSc1nc2ccccc2n1-c1ccccc1 (stereo unspecified)	86	84	·	-31
91	O=C(C1CCN(S(=O)(=O)c2cccs2)CC1)N1CCN(c2ccccc2F)CC1	89	93	109	16
92	CS(=O)(=O)c1nc(-c2ccc(Cl)cc2)n[nH]1	113	92	·	-20
93	COc1ccccc1Cn1nccc1N	85	94	101	-11
94	Cc1cccc(C(=O)NCc2n[nH]c(=S)n2-c2ccccc2)c1	106	97	111	5
95	Cc1cc(C)nc(NS(=O)(=O)c2ccc(NC(=O)c3ccc(Br)cc3)cc2)n1	·	·	98	2
96	O=C(COCc1cc(-c2ccco2)on1)Nc1cccc(O)c1	108	85	100	·
97	CN1CCSc2ccc(C(=O)NCCCN3CCCC3)cc21	107	95	99	2
98	c1nc2nnnn2c2c1CCCC2	76	86	·	-10
99	Cc1ccc(C)n1-c1nnc(N2CCC(C(=O)NCc3ccc(F)cc3)CC2)s1	98	85	102	-18
100	O=C(O)COCC(=O)Nc1cc(Cl)cc(Cl)c1	94	88	98	-26
101	O=C(CSC1CCCCC1)Nc1cccnc1Cl	94	90	·	-17

Look-ups from the entries so far:
compound 99 | Sa growth 42C second temp: 85
compound 87 | Sa growth 42C: 118
compound 92 | Sa growth 42C: 113
